PABP FP inh = PABP poly(A) RNA binding inhibitors, primary screen, biochemical, fluorescence polarization, uHTS. inhibition, % at 35 µM. actives 1% (n = 290,000);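 active means 50% or more with normal probe brightness, or confirmed in later tests; about a fifth of its hits are not listed in these tables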;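 further: calls also rest on retests at 20 µM and on dose response follow-up; controls were probe without protein and protein plus probe with vehicle; some compounds called inactive have numbers as strong as hits; many hits fall short of the cut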
Yeast UUG start = modulators of yeast start codon fidelity, primary screen, whole organism, S. cerevisiae, single point, plate reader; activity score, % at 18.7 µM; actives 0.13% (n = 350,000); AID 602363, 2012; S. cerevisiae UUG-firefly luciferase reporter, luminescence/redox ratio;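 active means replicate mean at a twofold rise or more, about +100% in these data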;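 further: firefly luciferase made from a UUG start codon reports start codon fidelity; reporter light over untreated wells divided by growth signal over untreated wells; some hits fall short of that in this replicate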
Rce1 inhib = yeast Rce1p protease inhibitors, primary screen, biochemical, fluorescence, cell-free homogeneous. calls only. yeast membranes, quenched prenylated peptide cleavage fluorescence. actives 0.27% (n = 290,000). CAAX prenyl protease 2 (Saccharomyces cerevisiae (strain ATCC 204508 / S288c)), Q03530. AID 2563, 2010;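 active means fall in fluorescence gain of 50% or more versus controls, with final raw signal at or below 3038400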;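 further: plate controls were neutral control wells for no effect and wells lacking membranes for full effect; tested at 10 µM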
Target sequence (Q03530 whole entry, looked up): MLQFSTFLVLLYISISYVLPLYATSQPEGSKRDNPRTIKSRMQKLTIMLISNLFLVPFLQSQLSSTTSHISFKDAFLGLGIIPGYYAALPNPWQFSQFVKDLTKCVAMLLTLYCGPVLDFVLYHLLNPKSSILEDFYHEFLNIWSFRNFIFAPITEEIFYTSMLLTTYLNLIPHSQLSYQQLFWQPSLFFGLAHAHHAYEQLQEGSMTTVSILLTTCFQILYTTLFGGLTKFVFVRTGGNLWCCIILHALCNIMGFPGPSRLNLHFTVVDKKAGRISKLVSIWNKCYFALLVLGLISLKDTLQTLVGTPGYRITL
eIF4H FP inh = human eIF4H binding inhibitors, primary screen, translation initiation inhibitor project, biochemical, uHTS, fluorescence polarization | Eukaryotic translation initiation factor 4H (Homo sapiens), Q15056 | eIF4H fluorescence polarization binding assay | actives 0.94% (n = 290,000) | inhibition, % at 35 µM;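 active means 50% or more with normal probe brightness, or confirmed in later tests; about a fifth of its hits are not listed in these tables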;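 further: calls also rest on retests at 20 µM and on dose response follow-up; 0% = protein and probe with vehicle and 100% = probe without protein; strong numbers were not always called active; many hits fall short of the cut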
MT1-MMP act inh = blockers of MT1-MMP proenzyme processing, primary screen, HT1080 RFP-PRO-GFP cells, GFP/RFP fluorescence | Matrix metalloproteinase-14 (Homo sapiens), P50281 | actives 0.061% (n = 360,000) | AID 651647, 2012 | GFP/RFP ratio change, % at 20 µM | GFP/RFP ratio fluorescence, overnight; percent of plate control window, DMSO zero;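 active means GFP/RFP ratio change of at least 30% with cell ATP level not reduced by more than half and red fluorescence within 50% of control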; further: strong numbers were not always called active
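Assay system: HT1080 RFP-PRO-GFP cells | Dosing: 20 µM single dose, 1% DMSO | Incubation: Cells overnight before dosing, compound overnight, 37 °C, 5% CO2 | Evaluation: GFP/RFP fluorescence ratio | Control set: DMSO-only wells and HT1080 RFP-L50D-GFP cell wells as references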
Env fusion inh = inhibitors of HIV-1 Env-driven cell-cell fusion, primary screen, HeLa-JRFL effector, CEM21 target cells, luciferase | inhibition, % at 12.3 µM | actives 1.1% (n = 360,000);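 active means mean replicate inhibition score of at least 50 and every replicate individually at or above 50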;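 further: 0% = plate neutral controls and 100% = maraviroc near 300 nM; one replicate is shown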
CSC inhib = cancer stem cell viability inhibitors, primary screen, luminescence | actives 1.1% (n = 300,000) | inhibition, % at 7.5 µM | cancer stem cell-like cells viability;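 active means mean at 75% or more and at least half the replicates too; tested in HMLE shEcad cells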;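 further: 0% = median of negative and 100% = median of positive control wells; the first replicate is given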
eIF4H FP inh retest = further read-out of eIF4H FP inh, marked with its call; inhibition, %; compound at 20 µM; confirmation average;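 mean of two retest wells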
PABP FP inh retest = recorded beside PABP FP inh, whose call it bears; inhibition, %; compound at 20 µM; confirmation repeats;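 mean of two retest wells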
MT1-MMP act inh RFP = recorded beside MT1-MMP act inh, whose call it bears; RFP signal change, %; measured here: RFP expression control read;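 0 = vehicle wells; hits needed this value within 50% of zero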
* = called active by the depositor; i = inactive; x = no result given. The list is partial; rates above refer to the full screens.

SMILES	PABP FP inh	Yeast UUG start	Rce1 inhib	eIF4H FP inh	MT1-MMP act inh	MT1-MMP act inh RFP	Env fusion inh	CSC inhib	others
CC(Oc1ccccc1)C(=O)N1CCCc2ccccc21 (stereo not given)	1	6	i	-2	-3	2	-43	-9
CCOC(=O)Cc1nnc(NC(=O)c2ncn[nH]2)s1	10	-7	i	19	7	3	-96	-6
CN(C(=O)CCc1nnc(CCCCc2ccccc2)o1)C1CC(C)(C)NC(C)(C)C1	5	x	i	18	-3	1	22	-19
Cc1ccc(N2NC(=O)/C(=C\c3cc4c(cc3[N+](=O)[O-])OCO4)C2=O)cc1C	3	-2	i	105	1	2	x	88*	eIF4H FP inh retest=-8;PABP FP inh retest=1
CCCC(CCC)c1nnc(NC(=O)c2ccco2)s1	-2	-4	i	0	-3	-3	-30	-13
CC(C)(C)c1ccc(NC(=O)c2cc(C3CCCN(S(=O)(=O)c4cccc5cccnc45)C3)on2)cc1 (stereo not given)	x	-1	x	x	1	-22	1	x
CCc1c(O)nc(SCC(N)=O)n(-c2ccccc2F)c1=O	1	-10	i	-4	2	3	1	-9
CCOC(=O)C(C)Sc1nnc(NC(=O)c2cccc([N+](=O)[O-])c2C)s1 (stereo not given)	-6	x	i	-1	-1	-5	-9	-9
O=C(COc1ccc(Cl)cc1[N+](=O)[O-])N1CCCCC1	-1	-3	i	9	-3	1	5	-6
Cc1ccc(-n2ncc3c(=O)n(CC(=O)N4CCCCCC4)cnc32)cc1	-7	-13	i	2	-2	0	x	17
Cn1c2ccccc2c2c(C(=O)N3CCN(c4ccc(F)cc4)CC3)cn(C3CCCC3)c(=O)c21	-10	-10	i	-14	3	-10	68*	54
CN(C)CCCO/N=C(\c1ccccc1)c1ccncc1	-2	3	i	-3	-4	0	2	-6
N=c1c(C(=O)NCc2ccccc2)cc2c(=O)n3ccccc3nc2n1Cc1ccco1	52*	3	i	84*	-11	-8	-209	34
NNC(=O)CC(=O)NC1(Cc2ccc(O)cc2)CCCCC1	-4	x	i	7	-3	-1	-8	0
Cc1ccc2c(C)c(C(=O)N(C)Cc3ccncn3)oc2c1C	13	-17	i	2	-1	2	-15	-19
CC1CC(C)CN(c2ccc(S(=O)(=O)N3CCOCC3)cc2)C1 (stereo not given)	8	-3	i	-5	1	-1	-6	-10
CCCc1cc(=O)oc2c(C)c(OCC(=O)N3CCC(C(=O)O)CC3)ccc12	8	-28	i	-6	3	1	x	-7
O=C(COC(=O)CN1C(=O)COc2ccccc21)NC1CCCCC1	x	4	i	x	2	4	8	-5
CC(=O)Nc1ccc(-c2cc(-c3ccccc3)nc(-c3ccccc3)n2)cc1	-8	x	i	0	-2	0	-1	-9
CCCCN(C(=O)C1CC1)C1CCS(=O)(=O)C1 (stereo not given)	x	-7	i	x	-3	-1	x	0
CCN1CCc2c(sc(N)c2C#N)C1	66	-18	i	116	-17	6	x	17	eIF4H FP inh retest=-11;PABP FP inh retest=1
CCOC(=O)/C(=N\Nc1ncnc2ccccc12)c1ccc(C)cc1	6	-23	i	12	-2	5	-10	x
Cc1cc(C(=O)CN2C(=O)NC3(CCC(C)CC3)C2=O)c(C)n1C (stereo not given)	4	-7	i	-3	4	3	-9	-13
CCN(CC(=O)Nc1ccc(NC(C)=O)cc1)C(=O)Cc1c(Cl)cccc1Cl	-9	-12	i	1	-1	5	x	-9
Cc1ccc(CS(=O)(=O)CCC(=O)NCCCN2CCCC2=O)cc1	1	x	i	0	0	2	x	0
(list continues)
SMILES	PABP FP inh	Yeast UUG start	Rce1 inhib	eIF4H FP inh	MT1-MMP act inh	MT1-MMP act inh RFP	Env fusion inh	CSC inhib	others
CCOc1cccc(N(C(=O)c2ccco2)C(C(=O)NC2CCCC2)c2cccnc2)c1 (stereo not given)	2	-3	i	-2	-2	3	5	-2
Cc1ccc(NC(=O)c2cc(=O)c3ccccc3o2)c(C)c1	10	x	i	-13	-4	-3	2	-5
CCOC(=O)CSC1=C(C#N)C(c2ccc(C)s2)CC(=O)N1 (stereo not given)	1	11	i	1	7	-7	x	x
C=CCN(CC=C)C(=S)NC(=O)c1ccc([N+](=O)[O-])cc1	10	x	i	4	8	0	-9	1
Cc1cccc(Nc2c([N+](=O)[O-])c(=O)n(C)c3ccccc23)c1	81	x	i	10	3	-7	23	-10	eIF4H FP inh retest=-6;PABP FP inh retest=4
CCOCC(=O)N1CCN(c2ccc(F)cc2)CC1	-10	-16	i	-8	1	3	x	-15
Clc1ccc(OCc2nnc(-c3ccccc3Br)o2)c(Cl)c1	-3	-18	i	3	-4	-1	x	8
COc1ccc2c(CC(=O)Nc3ccccc3OC)coc2c1	-2	-7	i	9	0	-1	-4	10
CC(O)c1cccc(-c2ccc(CN3C[C@]4(CO)O[C@@H](CO)C[C@@H]4S3(=O)=O)cc2)c1 (stereo not given in full)	x	-8	x	x	3	-1	-24	x
CC(=O)OCCn1c([N+](=O)[O-])cnc1C=[N+]([O-])C1CCCCC1	x	-14	x	x	0	2	0	x
O=C(O)c1cccc(-c2ccc(/C=C3/SC(=Nc4ccccc4)N(Cc4cccnc4)C3=O)o2)c1	48*	-8	i	64*	0	2	-2	10	eIF4H FP inh retest=98*;PABP FP inh retest=71*
COc1ccc(C2c3cc(OC)c(OC)cc3CCN2C(=O)c2ccccc2Br)cc1OC (stereo not given)	1	11	i	-1	-3	-1	3	3
Cc1oc(-c2ccc(Cl)cc2)nc1CN1CCCC(C(=O)NCc2ccccn2)C1 (stereo not given)	3	-14	i	-5	4	-6	25	-5
COC(=O)c1ccccc1NC(=O)c1sc(Cl)nc1C	-6	-20	i	-3	1	-2	-8	-4
COc1cc(CN2CCC(C(=O)N3CCC(C)CC3)CC2)cc(Br)c1O	1	-11	i	18	1	6	-78	-8
CC(=O)c1ccc(Nc2nc(C(N)C(C)C)cs2)cc1 (stereo not given)	x	-8	x	x	-3	1	-14	x
COc1cc(C(=S)N2CCOCC2)cc(OC)c1OC(=O)c1cc([N+](=O)[O-])cc([N+](=O)[O-])c1	12	-25	i	-2	13	1	x	x
Cc1ccc(S(=O)(=O)N2CCN(C(=O)c3ccco3)CC2)c(C)c1	14	-10	i	2	2	-2	12	-1
O=C(COc1ccc(Cl)cc1)NCc1nnc(SCC(=O)N2CCCCCC2)o1	15	-14	i	-5	3	-3	-6	-1
CC(CN1CCOCC1)OC(=O)c1ccccc1 (stereo not given)	-1	x	i	-10	0	2	-9	-6
COc1ccc(/C=N/NC(=O)c2ccco2)cc1OCc1ccccc1	-1	x	i	0	-3	-9	0	23
Cc1ccnc2nc(C(=O)OCCOc3cccc(Br)c3)nn12	-13	-9	i	7	-5	-1	-8	1
O=C(Cn1c2ccccc2c(=O)c2cc([N+](=O)[O-])ccc21)Nc1ccccc1Cl	-7	x	i	-31	-2	-5	-16	x
O=C(Nc1ccno1)Nc1ccc(Cl)cc1Cl	-10	x	i	-4	5	-5	-66	-2
O=C(CSc1nnc(CNc2ccc(F)cc2)n1Cc1ccccc1)NCc1ccccc1	11	-12	x	-3	-3	-2	x	30

The closing four entries of the part before open the next one:
SMILES	PABP FP inh	Yeast UUG start	Rce1 inhib	eIF4H FP inh	MT1-MMP act inh	MT1-MMP act inh RFP	Env fusion inh	CSC inhib	others
Cc1ccnc2nc(C(=O)OCCOc3cccc(Br)c3)nn12	-13	-9	i	7	-5	-1	-8	1
O=C(Cn1c2ccccc2c(=O)c2cc([N+](=O)[O-])ccc21)Nc1ccccc1Cl	-7	x	i	-31	-2	-5	-16	x
O=C(Nc1ccno1)Nc1ccc(Cl)cc1Cl	-10	x	i	-4	5	-5	-66	-2
O=C(CSc1nnc(CNc2ccc(F)cc2)n1Cc1ccccc1)NCc1ccccc1	11	-12	x	-3	-3	-2	x	30
CC(C)(C)C(=O)Nc1ccc(-c2csnn2)cc1	-4	x	i	-4	1	1	-64	1
Cc1ccccc1-c1nc(CN2CCC(C(=O)NC3CCCCC3)CC2)c(C)o1	-9	x	i	-10	1	0	8	8
CC(C)[C@H](CN(N=O)[C@@H](Cc1ccccc1)CN(C)N=O)N(CCc1ccccc1)N=O	3	-10	i	18	1	-2	68*	-5
N#C/C(=C\c1ccc(OCCN2CCOCC2)cc1)C(=O)Nc1ccccc1	-10	-21	i	1	3	0	x	-12
Cc1cc(OCCn2cnc3ccccc3c2=O)cc(C(C)C)c1	-20	x	i	-2	2	-3	10	-4
CC(NS(=O)(=O)c1ccc(Br)cc1)C(=O)NCc1ccc2c(c1)OCO2 (stereo not given)	-6	x	i	3	-2	-3	-4	-4
COC(=O)c1sc2nc(CSc3ccc(Br)cc3)[nH]c(=O)c2c1C	17*	x	i	51*	-20	4	9	19	eIF4H FP inh retest=88*;PABP FP inh retest=87*
COC(=O)CCN(c1ccccc1)S(=O)(=O)c1cc(-c2cc(C)no2)ccc1OC	4	-14	i	-3	4	1	-9	16
Cc1c(OCC(=O)OC(C)(C)C)ccc2c3c(c(=O)oc12)CCC3	0	-9	i	-11	0	-4	x	45
CC(=O)c1cccc(NC(=O)CSc2ccc(-c3ccc4c(c3)OCO4)nn2)c1	-8	-14	i	-6	-6	-17	-25	-2
Cc1nnsc1NC(=O)OCCCl	-3	-13	i	0	2	0	x	-13
CCC1=C(OC(=O)N(CC)CC)N2C(=O)OC(=NCCc3c[nH]c4ccccc34)[C@]2(C)[C@H]2C1=CC[C@H]1C(=O)N(CC(=O)OC)C(=O)[C@H]12	-10	8	i	-5	-8	-6	-40	-9
Cc1ccc(/C=C2\OC(=O)c3ccccc32)cc1	-3	-31	i	-1	-5	2	-59	0
Clc1cccc(CNc2ccn3nc(-c4ccccc4Cl)cc3n2)c1	x	-23	x	x	2	-1	-2	x
COc1cccc(CNC(=O)Cn2cc([N+](=O)[O-])cn2)c1	-4	-13	i	6	2	2	-19	-11
CCN(CC)CCN(C(=O)c1ccc2ncsc2c1)c1nc2cc3c(cc2s1)OCO3	9	-15	i	-7	-1	4	-50	-17
CCCC(=O)OCCNc1cc(Sc2nccn2C)c2nonc2c1[N+](=O)[O-]	5	x	i	10	2	2	-179	50
COc1ccccc1N1CCN(C(=O)C2CCCO2)CC1 (stereo not given)	3	-4	i	10	-3	1	x	-6
C/C(=N\NC(=O)c1c[nH]c2ccccc12)c1ccc(C)o1	10	-22	i	5	4	3	-165	4
COc1cc2c(cc1OC)CN(C(=O)c1ccc(S(=O)(=O)N3CCCCCC3)cc1)CC2	6	5	i	2	1	0	x	-2
O=C(CCCNS(=O)(=O)c1ccccc1)NCc1ccco1	-5	-3	i	-2	-1	-7	-79	-10
CC(=O)NC(Cc1cccc(F)c1)C(=O)NC1CCN(c2ncccc2[N+](=O)[O-])CC1 (stereo not given)	-4	x	i	-1	-2	-3	-6	-7
CCOC(=O)[C@@H]1[C@H]2COc3ccccc3[C@H]2N2C(=O)N(c3ccc(C)cc3)C(=O)[C@]12C	-2	-14	i	-4	-1	0	-13	-9
COc1ccccc1-c1c(NC(=O)c2ccco2)n(C)c2ccccc2c1=O	2	x	i	-5	x	x	5	-7
COc1ccc(N2C(=O)CC(NCc3ccc(F)cc3)C2=O)cc1 (stereo not given)	-3	-6	i	-3	4	4	x	-8

Screening results deposited in PubChem BioAssay by several laboratories.
